HCMV NEC inh – inhibitors of HCMV UL50-UL53 interaction, biochemical, HTRF; HCMV UL50-UL53 nuclear egress complex (human cytomegalovirus); normalized percent inhibition; inhibition, % (test concentration not listed); hit rate 0.15% among 190,000; AID 1918969, 2023;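 active = both replicates at 50% or more, plus weaker picks with an unusually low signal ratio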;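 also: stock transfer was 100 nL into about 20 µL; 0% = negative control wells and 100% = wells with untagged competitor protein; inactives centre near -12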
Sa growth 42C – S. aureus growth inhibition at 42 and 30 °C, primary screen, LtaS inhibitor project, RN4220, two temperatures; OD600, 20 h, 42 °C; stronger effect = lower value; relative growth, % (no concentration beside the values); hit rate 0.53% among 170,000;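 active = growth at 42 °C up to 50% and 20 or more points under that at 30 °C, or under 10% at both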;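 also: 300 nL library stock went into each well; scaled to the means of positive and negative controls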
GIV-Gai inh – inhibitors of GIV peptide binding to Galpha-i3, primary screen, biochemical, fluorescence polarization, FITC-GIV GBA peptide, rat Galphai3; Guanine nucleotide-binding protein G(i) subunit alpha-3 (Rattus norvegicus), P08753; 90 min; stronger effect = lower value; scaled: aluminum fluoride 0%, vehicle 100%; percent of control (FP), % (no concentration beside the values); hit rate 0.42% among 210,000; AID 1224905, 2016;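 active = replicate mean at 85% of control or lower, very high polarization wells dropped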;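 also: wells of about 15 µL received 100 nL stock; the first replicate is given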
Target sequence (P08753 whole entry, looked up): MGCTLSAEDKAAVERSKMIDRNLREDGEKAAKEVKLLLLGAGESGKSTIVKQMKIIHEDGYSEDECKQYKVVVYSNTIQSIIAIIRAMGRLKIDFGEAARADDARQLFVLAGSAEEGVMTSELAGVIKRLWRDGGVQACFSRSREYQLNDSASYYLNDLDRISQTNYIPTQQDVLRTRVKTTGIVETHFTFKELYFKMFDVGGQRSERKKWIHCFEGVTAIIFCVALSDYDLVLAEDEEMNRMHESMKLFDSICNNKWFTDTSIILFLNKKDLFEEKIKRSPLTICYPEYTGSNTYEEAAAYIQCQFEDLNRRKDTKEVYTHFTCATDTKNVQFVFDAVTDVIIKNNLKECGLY
Sa growth 42C second temp – recorded beside Sa growth 42C, whose call it bears; relative growth, %; measured here: growth at 30 °C;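 optical density after 20 h as mean of two plates; 100% = untreated growth and lower means inhibition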
* = called active by the depositor; nt = not tested or not shown; & = joins results of further samples. Only part of the results is shown; the hit share may differ from the screen's.

SMILES	HCMV NEC inh	Sa growth 42C	Sa growth 42C second temp	GIV-Gai inh
CCC(C(=O)Nc1cccc(Cl)c1)N1C(=O)CN=C(c2ccccc2)c2ccccc21 (stereo not given)	1	nt	nt	102
Cn1c(O)c(C2=NNC(c3ccccc3)C2)c(=O)n(C)c1=O (stereo not given)	-6	nt	nt	99
Cn1nc(-c2ccc(OCC(=O)N3CCN(Cc4ccccc4)CC3)cc2)c2ccccc2c1=O	nt	76	91	98
COc1cc(C2NC(=O)NC(c3ccc(O)c(OC)c3)C23C(=O)NC(=O)NC3=O)ccc1O (stereo not given)	-16	89	84	93
COC(=O)N1CC2CC(C1)c1cccc(=O)n1C2 (stereo not given)	-6	98	100	109
COc1ccc2[nH]c(C)c(CCN3CCC(=O)C(C)C3C)c2c1 (stereo not given)	2	82	96	106
CN1CCC2=C(C1)C(=O)NC1(CCCCC1)N2	-2	104	91	102
COC(=O)c1ccc2c(c1)N=C(Cl)c1ccccc1S2	-6	105	89	104
O=C1NC(=O)C(CCc2ccncc2)(Cc2ccc(Br)s2)C(=O)N1	-12	102	81	nt
COc1ccc(-c2nc(CN3C(=O)CN=C(c4ccccc4)c4cc(Cl)ccc43)c(C)o2)cc1	-22	115	83	103
Nc1c(C(=O)NC2CC2)c2nc3ccccc3nc2n1Cc1ccccc1	-23	102	92	nt
O=C(COc1cccc(Oc2ccccc2)c1)N1CCN(Cc2ccccc2)CC1	-21	112	78	nt

The last two compounds of the section above lead into the next.
SMILES	HCMV NEC inh	Sa growth 42C	Sa growth 42C second temp	GIV-Gai inh
Nc1c(C(=O)NC2CC2)c2nc3ccccc3nc2n1Cc1ccccc1	-23	102	92	nt
O=C(COc1cccc(Oc2ccccc2)c1)N1CCN(Cc2ccccc2)CC1	-21	112	78	nt
CN1C[C@H](CNC(=O)OCc2ccccc2)C[C@@H]2c3cccc4c3c(cn4C)C[C@H]21	0&2&51	nt	nt	102
CCOc1cc2c(cc1OCC)-n1cccc1C(c1cc(C)c(OC)cc1C)NC2 (stereo not given)	3	86	93	nt
CCOc1cc(/C=C2\C(O)C3CCN2CC3)cc(Cl)c1OCC (stereo not given)	-26	97	99	102
CCN(CC)c1ccc2c3c(c(=O)oc2c1)C(c1cc2c(C)cc(C)cc2[nH]c1=O)C(C#N)=C(N)O3 (stereo not given)	20	91	116	130
COc1ccc(C(=O)N2CCC3(CC2)OCCO3)cc1	-36	96	100	99
NC(Cc1cc(O)c(O)cc1O)C(=O)O (stereo not given)	76*	nt	nt	71*
COc1ccc(N2C(=O)NC(=O)C(Cc3ccc(O)c(OC)c3)C2=O)cc1 (stereo not given)	-3	103	80	nt
O=C1CC(c2cccc(Br)c2)c2c(c3ccccc3oc2=O)O1 (stereo not given)	-2	103	92	nt
CCOC(=O)COc1ccc(/C=C2\C(=O)NC(=S)N(c3ccc(OC)cc3)C2=O)cc1OC	-32	nt	nt	102
CC(=O)NBr	-19	nt	nt	101
Cc1c(C)c(C)c(CCN)c(C)c1C	-9	111	83	103
N=C1c2ccccc2CN1c1ccc(Br)cc1	nt	118	89	97
O=C(CN1CC(c2ccccc2)CC1=O)Nc1ccccc1 (stereo not given)	nt	83	78	98
CCCCn1c(C)c(C(=O)OCC)c2cc(OC(=O)c3ccc(F)cc3)c3ccccc3c21	-5	nt	nt	103
C[n+]1ccc(-c2cc[n+](C)cc2)cc1	nt	51	53	101
O=c1cccc2n1CC1CC2CN(c2nc(N3CCOCC3)nc(N3CCOCC3)n2)C1 (stereo not given)	9	nt	nt	101
CS(C)=C1C(=O)NC(=O)N(CCc2ccc(F)cc2)C1=O	3	86	97	nt
CC12CN3CC(C)(C1=O)C(=O)C(C)(C3)C2=O	-1	82	96	nt
C#CCN[C@H](C)Cc1ccccc1	-18	nt	nt	109
CC1(C)CC2(CCCN(CC#N)C2)CCS1 (stereo not given)	-39	113	77	106
Cc1ccc(C(=O)N2c3ccc(C)cc3[C@@H]3CN(C)CC[C@H]32)cc1	1	117	97	nt
O=S(=O)(c1ccc(NC2CN3CCC2CC3)nc1)N1CCCC1 (stereo not given)	-1	99	101	nt
COc1ccc(CN2CCNCC2)cc1	-15	117	101	105
c1ccc(CSc2nnc(-c3ccccc3)o2)cc1	nt	105	88	99
O=c1cccc2n1CC1CC2CN(c2ccc3nnc(-c4ccccc4)n3n2)C1 (stereo not given)	-36	96	79	95
CCS(=O)(=O)N1CCCC(C(=O)N2CCC3(CC2)OCCO3)C1 (stereo not given)	nt	113	93	107
CC(C)c1ccc(NC(=O)CN2C(=O)CN=C(c3ccccc3)c3ccccc32)cc1	-18&-14	100	92	108&101
C=CCN(CC=C)Cc1c[nH]c2ccccc12	2	87	95	104
CN(N=O)c1cc(O)ccc1O	1	nt	nt	101
CCC(=O)N1N=C2C3CCN(CC3)[C@@H]2[C@@H]1c1ccc(OC)cc1	-30	nt	nt	102
C=C1CC2(C)C(=CC1=O)CCC1C2CCC2(C)C(OC(=O)OCC)CCC12 (stereo not given)	7	126	96	97
O=C1[C@@H]2CCCN2[C@@H](c2ccc(Br)cc2)N1c1ccccn1	9	nt	nt	104
CN(C)C(=O)Oc1ccc(-c2nnco2)cc1	-11	90	71	99
COCc1cc(=O)oc2cc(OC(=O)N(C)C)ccc12	-3	112	94	96
CCN1CCN(Cc2ccc(C)cc2)CC1	3	105	104	102
CN1CCN(Cc2cc(=O)n3ccsc3n2)CC1	-8&-16	95	103	107&105
CC(C)(C)NCC(O)c1cc(Cl)c(N)c(Cl)c1 (stereo not given)	-34&-23	86	84	106
COc1ccccc1CN1CCN(Cc2ccccc2F)CC1	6	nt	nt	107
CCN(CC)CCCC(C)NC(=O)c1cc2cccnc2n(Cc2ccc(F)cc2)c1=O (stereo not given)	-27	nt	nt	107
CN1CC(C#N)C2(O)c3ccccc3CCC2C1 (stereo not given)	-22	105	95	102
CCN(CC)P1(=O)COc2ccccc2OC1	-10	77	90	nt
FC(F)(F)C1=NC(C(F)(F)F)=NP(N2CCCCC2)(N2CCCCC2)=N1	0	99	87	nt
OC(CNC1CCCCCC1)C(F)(F)F (stereo not given)	-16	nt	nt	98
Cc1cccc(NC(=O)C2C(C)(C)C2(C)C)c1C	-20	113	101	104
COc1ccc2c(c1)c(C(=O)N1CCCC1)c(C)n2Cc1ccccc1	-18	75	111	107&99
CN1C(=O)C(=Cc2coc3ccccc3c2=O)C(=O)N(C)C1=O	39*	86	83	103
COc1nc(NCC2CCCO2)nc(N2CC3CC(C2)c2cccc(=O)n2C3)n1 (stereo not given)	3	96	95	nt
CCOC(=O)N1CCC(NC(=O)CCc2nc(C3=CCN(C)CC3)no2)CC1	nt	89	84	96

Complete entries from above.
Listed for `CCOC(=O)N1CCC(NC(=O)CCc2nc(C3=CCN(C)CC3)no2)CC1` → HCMV NEC inh = nt; Sa growth 42C = 89; Sa growth 42C second temp = 84; GIV-Gai inh = 96
Listed for `COc1nc(NCC2CCCO2)nc(N2CC3CC(C2)c2cccc(=O)n2C3)n1` (stereo not given) → HCMV NEC inh = 3; Sa growth 42C = 96; Sa growth 42C second temp = 95; GIV-Gai inh = nt
Listed for `CN1CC(C#N)C2(O)c3ccccc3CCC2C1` (stereo not given) → HCMV NEC inh = -22; Sa growth 42C = 105; Sa growth 42C second temp = 95; GIV-Gai inh = 102

(cont.)
SMILES	HCMV NEC inh	Sa growth 42C	Sa growth 42C second temp	GIV-Gai inh
C1=CC2CCC(C1)N2CCN1C2C=CCC1CC2	-11	99	80	nt
c1ccc2c(CNC3CCCC3)c[nH]c2c1	4	92	96	102
Nc1nonc1C1=NOC(c2nonc2N)=NO1	12	70	92	105
O=C(O)c1[nH]c2ccc(Cl)cc2c1CC(=O)N1CCC2(CC1)OCCO2	nt	108	99	101
CN(C(=O)Oc1ccccc1)c1ccc(C(O)(C(F)(F)F)C(F)(F)F)cc1	-2	98	100	102
Cn1c(O)c(/C=N/C(N)=S)c(=O)n(C)c1=O	-8	85	86	nt
COC(=O)N1CCN(C(=O)Cc2ccc(Cl)c(Cl)c2)C(CN2CCCC2)C1 (stereo not given)	-49&-21	100	91	100
COC(=O)C1=C(C)N(C)C(=O)C12c1ccccc1-c1oc(N)nc12 (stereo not given)	-17	96	41	106
CC(Cc1ccccc1)NC=O (stereo not given)	2	100	99	101
O=c1c2ccccc2nc(CSc2ncnc3ccccc23)n1-c1ccccc1	-3	91	87	99
C[N+](C)(C)CC#CCOC(=O)Nc1cccc(Cl)c1	-33	nt	nt	100
NCC(CC(=O)O)c1ccc(Cl)cc1 (stereo not given)	-2&2&-5	95	98	97
CN1CCN(P2(=O)CC=CC2)CC1	-2	105	90	nt
COc1ccccc1N1CCN(Cc2ccccc2F)CC1	-7	113	95	103
NC(=O)c1ccc(N=Cc2c(O)n(Cc3ccco3)c(=O)[nH]c2=O)cc1	-19	120	84	103
O=C1CSC(c2ccsc2)c2c(-c3ccc(Cl)cc3)nn(-c3ccccc3)c2N1 (stereo not given)	-16	nt	nt	103
COc1ccc(C2N3CCCN2CC3)cc1 (stereo not given)	0	93	95	nt
CCOC(=O)C1=C(c2ccccc2)OC(N)=C(C(=O)OCCOC)C12C(=O)Nc1ccc(Br)cc12 (stereo not given)	-24	nt	nt	108
O=C(c1cc(S(=O)(=O)N2CCC3(CC2)OCCO3)ccc1F)N1CCC2(CC1)OCCO2	nt	103	88	99
Fc1cccc(NC2=NCCS2)c1	-21	94	95	99
CCC(CC)NC1CCCCC1OC (stereo not given)	-3	100	108	92
Cc1cc(OCC(=O)N2CCN(CCc3ccncc3)CC2)ccc1Cl	-1	99	94	97
N#CCCNCc1cccnc1	-30	103	84	nt
CC(C)c1ccc(CN2CCNCC2)cc1	1	97	95	nt

Laid out differently: 3 of the compounds above
smiles: O=C(c1cc(S(=O)(=O)N2CCC3(CC2)OCCO3)ccc1F)N1CCC2(CC1)OCCO2
  HCMV NEC inh = nt
  Sa growth 42C = 103
  Sa growth 42C second temp = 88
  GIV-Gai inh = 99

smiles: NC(=O)c1ccc(N=Cc2c(O)n(Cc3ccco3)c(=O)[nH]c2=O)cc1
  HCMV NEC inh = -19
  Sa growth 42C = 120
  Sa growth 42C second temp = 84
  GIV-Gai inh = 103

smiles: Cc1cc(OCC(=O)N2CCN(CCc3ccncc3)CC2)ccc1Cl
  HCMV NEC inh = -1
  Sa growth 42C = 99
  Sa growth 42C second temp = 94
  GIV-Gai inh = 97

(listing goes on)
SMILES	HCMV NEC inh	Sa growth 42C	Sa growth 42C second temp	GIV-Gai inh
CCCC1=C(C(=O)OCC)C2(C(=O)Nc3ccccc32)C(C#N)=C(N)O1 (stereo not given)	-14	nt	nt	99
COc1ccc(C2CC(O)CC(c3ccc(OC)cc3)C23C(=O)NC(=O)NC3=O)cc1 (stereo not given)	-11	95	95	nt
CC(=O)N1CN(C(C)=O)CN(C(C)=O)C1	2	99	78	95
COc1cc(CN2CCN(C(=O)COc3ccccc3)CC2)cc(OC)c1OC	nt	85	100	104
Cc1ncc(CNC(=O)N(CCCl)N=O)c(N)n1	16	nt	nt	97
O=C(O)c1ccccc1-c1c2cc(Br)c(=O)cc-2oc2[c]([Hg])c(O)c(Br)cc12	-84	59	64	nt
CC(Cc1ccc(O)cc1)NCC(O)c1cc(O)cc(O)c1 (stereo not given)	-1&-30&-18	104	105	104
CCN(CC)CCn1c(NCc2ccc(Cl)cc2)nc2ccccc21	-15	nt	nt	98
Cc1ncsc1CCCl	-2&-15	nt	nt	104
C=CCOC(=O)C1=C(C)OC(N)=C(C#N)C12C(=O)Nc1ccc(Cl)cc12 (stereo not given)	-13	nt	nt	104
O=C(COc1ccc(Cl)cc1Cl)N1CCN(CCN2C(=O)c3cccc4cccc(c34)C2=O)CC1	-1	nt	nt	108
CNC(C)C(=O)C12CC3CC(CC(C3)C1)C2 (stereo not given)	-16	88	82	106
CCCN1CCC[C@@H]2Cc3nc(N)ncc3C[C@H]21	-14	nt	nt	103
C1CN(C23CC4CC(CC(C4)C2)C3)CCN1	-8	105	82	nt
S=P1(N2CCOCC2)C2=C(CCC2)C2=C(CCC2)N1c1ccccc1 (stereo not given)	-21	106	107	nt
COc1ccc(-n2c(CCC(=O)O)nc3ccccc3c2=O)c(OC)c1	-14	91	90	nt
OCCCNc1c2c(nc3ccccc13)CCCC2	8	112	60	105
CCCN1CCc2cccc3c2[C@H]1Cc1ccc(O)c(O)c1-3	-60	nt	nt	105
CN1C(=O)C(=Cc2ccco2)C(=O)N(C)C1=O	-10	89	76	99
Cc1ccc2c(c1)N(CCC(=O)N1CCC3(CC1)OCCO3)C(=O)C(C)O2 (stereo not given)	nt	94	86	103
Nc1ccc(N2CCNCC2)cc1	nt	87	97	108
O=C1NC(=S)NC(=O)C1=C/C=C/c1ccco1	78*	66	62	110
CC/C(=C\C=C\C1C=CC2CCCC2C1C(=O)c1ccc[nH]1)C1OC(C(C)C(=O)O)CCC1C (stereo not given)	-4	nt	nt	100
O=C(Nc1ccon1)c1cccn(Cc2ccccc2)c1=O	nt	158	89	102
O=c1cccc2n1CC1CC2CN(c2nc(N3CCCC3)nc(N3CCCC3)n2)C1 (stereo not given)	5	nt	nt	100
CN(C)C(=O)Oc1cccc(N)c1	nt	90	86	102
CC(=O)NS(=O)(=O)c1ccc(NC(=O)c2cccn(Cc3ccc(Cl)cc3)c2=O)cc1	nt	90	81	102
O=C(c1cc2c(Cl)nc3ccccc3c2s1)N1CCC2(CC1)OCCO2	nt	106	96	101
CCN1C(=O)NC(=O)/C(=C\c2cn(CC(=O)NCC3CCCO3)c3ccccc23)C1=O (stereo not given)	-52	90	78	97

Screening results (PubChem BioAssay)
